Assay outcomes: PubChem, Broad Institute
Calb FLC – C. albicans growth modulation with fluconazole; C. albicans CaCi-2 (fluconazole-resistant clinical isolate) + fluconazole, Alamar Blue growth, 48 h; growth inhibition, % (concentration not given with the values); 300,000 compounds, 0.57% hits;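 active means most replicates above 75%; inconclusive means exactly half above 75%; inactive means most below 75%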;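 further: all wells also contain fluconazole at 8 µg/ml as a sub-toxic cotreatment; 0% = median of DMSO wells and 100% = median of geldanamycin control wells; wells of about 8 µL received 7.5 nL stock; the first replicate is given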
rRNA inh HTS – selective bacterial rRNA inhibition in E. coli; GFP signal change (wild-type ribosome), % (test concentration not listed); 350,000 compounds, 1.6% hits; E. coli WT GFP vs humanized-ribosome RFP mutants, fluorescence, 24 h; hits give low values; DMSO median 0, no signal -100;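 active means significant combined selectivity score with lowered wild-type GFP, culture density cut under 30%, mutant RFP and density less affected; inactive means any of these conditions unmet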; further: one replicate is shown; some compounds called inactive have numbers as strong as hits
AF4-AF9 inh – inhibitors of human MLL-AF4/AF9 interaction. P42568. AlphaScreen, biotin-AF4 peptide binding to FLAG-AF9. inhibition, % at 10 µM. 350,000 compounds, 0.47% hits;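 active means every replicate reaching a set inhibition limit, whatever the replicate mean, cut at about 25% in these data; inconclusive means mean inhibition reaches that limit but some replicates miss it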;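 further: 0% = plate neutral control median and 100% = total signal loss; the record names both 10 and 1 µM as test concentration; the first replicate is given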
Target sequence (P42568 whole entry, looked up): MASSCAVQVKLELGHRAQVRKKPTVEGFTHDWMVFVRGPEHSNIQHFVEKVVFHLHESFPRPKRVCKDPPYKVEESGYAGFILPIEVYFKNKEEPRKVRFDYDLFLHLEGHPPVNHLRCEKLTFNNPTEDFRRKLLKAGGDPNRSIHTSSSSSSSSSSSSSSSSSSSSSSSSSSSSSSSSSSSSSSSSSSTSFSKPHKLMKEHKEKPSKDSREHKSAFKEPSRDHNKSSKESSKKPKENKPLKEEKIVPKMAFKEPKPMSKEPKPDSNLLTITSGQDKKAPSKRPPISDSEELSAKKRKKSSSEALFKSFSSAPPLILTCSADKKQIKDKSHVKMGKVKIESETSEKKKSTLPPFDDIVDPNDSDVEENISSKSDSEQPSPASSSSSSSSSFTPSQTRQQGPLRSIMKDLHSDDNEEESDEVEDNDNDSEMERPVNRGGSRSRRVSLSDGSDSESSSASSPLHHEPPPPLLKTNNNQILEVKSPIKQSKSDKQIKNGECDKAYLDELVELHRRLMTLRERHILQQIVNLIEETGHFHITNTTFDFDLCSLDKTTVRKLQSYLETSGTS
FGF22 binding – shifts melting point of recombinant human FGF22; Q9HCT0; recombinant FGF22 thermal shift, SYPRO orange fluorescence; percent of sucrose octasulfate shift, DMSO zero; calls only at 9.99 µM; 340,000 compounds, 1.5% hits; AID 651658;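 active means melting point raised past a set limit in the mean and every replicate; inconclusive means no clear call; three in four hits are not shown here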
Target sequence (Q9HCT0 whole entry, looked up): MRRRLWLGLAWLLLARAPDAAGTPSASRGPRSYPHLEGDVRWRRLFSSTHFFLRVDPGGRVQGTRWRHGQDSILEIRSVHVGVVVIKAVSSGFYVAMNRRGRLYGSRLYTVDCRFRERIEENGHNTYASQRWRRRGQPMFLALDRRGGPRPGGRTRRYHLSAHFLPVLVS
T cruzi repl – T. cruzi replication inhibition | 300,000 compounds, 1.4% hits | inhibition, % (no concentration beside the values) | T. cruzi beta-gal in NIH3T3, luminescence, 90 h | AID 1885;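 active means mean inhibition across valid replicates above about 55%, limit read from the data; inconclusive means mean below that limit but half or more replicates reach it; inactive means mean below it, under half of replicates reach it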;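 further: signal also drops with host cell toxicity which is not excluded here; 0% = plate median of DMSO wells and 100% = zero luminescence signal; higher percent means less beta-gal luminescence so fewer parasites; stock transfer was 50 nL into about 50 µL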
RanGTP-Imp inh – disruptors of Ran-importin-beta complex formation – biochemical, FRET, CFP-Ran, YFP-importin-beta, homogeneous, primary screen; AID 2216; cell-free CFP-Ran/YFP-importin-beta FRET ratio; inhibition, % (no concentration beside the values); 300,000 compounds, 1.1% hits;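 active means most replicates above 15%; inconclusive means exactly half above 15%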;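 further: 0% = DMSO wells and 100% = Ran loaded with GDP instead of GTP; wells of about 40 µL received 100 nL stock; the first replicate is given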
ALR inh – inhibitors of human sulfhydryl oxidase ALR | P55789 | purified ALR, DTT oxidation, H2O2 HRP-luminol luminescence | inhibition, % (no concentration beside the values) | 290,000 compounds, 3.8% hits | AID 485317;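 active means mean and each replicate at 75% or more; inconclusive means only one of the two met; inactive means neither met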;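 further: stock transfer was 7.5 nL into about 7.5 µL; 0% = neutral wells and 100% = wells with inactivated enzyme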
Target sequence (P55789 whole entry, looked up): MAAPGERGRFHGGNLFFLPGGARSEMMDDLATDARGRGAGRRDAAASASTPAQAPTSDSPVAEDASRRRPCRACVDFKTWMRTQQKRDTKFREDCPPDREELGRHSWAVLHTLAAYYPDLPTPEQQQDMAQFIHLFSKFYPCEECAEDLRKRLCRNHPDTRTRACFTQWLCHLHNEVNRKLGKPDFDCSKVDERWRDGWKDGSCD
Beta apoptosis – blocks beta cell apoptosis | 300,000 compounds, 0.8% hits | INS-1E cytokine-induced death, ATP luminescence, 48 h; percent of positive-control rescue, neutral wells zero | protection from apoptosis, % (no concentration beside the values) | AID 435005;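 active means all replicates at 75% or more, or half of them and the mean; inconclusive means half reach 75% but not the mean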;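 further: 0% = cytokine-treated negative control wells and 100% = positive control rescue; higher means more ATP so stronger rescue from cytokine killing; wells of about 40 µL received 100 nL stock; the first replicate is given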
rRNA inh HTS OD600 – recorded beside rRNA inh HTS, whose call it bears; OD600 change, %; measured here: OD600 growth;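 optical density of the mix in the first replicate; 0 = DMSO median and -100 = no signal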
rRNA inh HTS RFP – also measured in rRNA inh HTS; calls as there; RFP signal change, %; measured here: RFP humanized mutant strains;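 first replicate; 0 = DMSO median and -100 = no signal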
Starred values were filed as active, the others as inactive; i = inactive; ? = inconclusive; . = not tested or not shown; & = joins results of further samples. The list is partial (hit frequency here may not be typical).

SMILES	Calb FLC	rRNA inh HTS	rRNA inh HTS OD600	rRNA inh HTS RFP	AF4-AF9 inh	FGF22 binding	T cruzi repl	RanGTP-Imp inh	ALR inh	Beta apoptosis
COc1ccc(COCC(O)CN2CCCCC2)cc1OC (centres undefined)	-3.8	5.3	14.4	-2.6	-0.4	i	4.4	3.6	-2.4	-8.7
Cc1ccc2nc3c(c(Nc4ccccc4)c2c1)CCC3	-23.9	-21.7	-25.5	-5.6	6.7	i	47.4	2.1	96.6*	26.7
Cc1cccc(NC(=O)CSc2cn[nH]n2)c1	-2.8	-3.2	-4.8	0.0	-0.8	i	-3.6	-0.6	-9.8	.
CN1C(=O)C(C)(C)c2cc(S(=O)(=O)N3CCCC3C(=O)NCc3ccc(F)cc3)ccc21 (centres undefined)	-7.2	13.6	18.4	4.9	-6.7	i	-1.5	-1.0	-3.0	-5.4
N#Cc1ccc2c(c1)nc1ccccn12	1.9	2.2	-1.2	2.9	-2.1	i	-11.8	7.5	-4.5	-5.1
CCNc1nc(NC(C)C)nc(N(n2cnnc2)S(=O)(=O)c2ccc(C)cc2)n1	3.8	6.1	9.3	-2.0	-4.6	i	11.2	4.9	-1.5	-0.2
COc1ccccc1NC(=O)CN1CCN(c2ccc(Cl)cc2)CC1	12.8	.	.	.	.	.	17.6	-0.7	16.9	-0.3
COc1cccc2sc3ccc(C#Cc4ccc(N)cc4)cc3c(=O)c12	7.3	5.7	10.2	-0.7	5.0	i	26.8	2.6	0.9	1.6
Cc1ccc(-c2nc3ccccc3o2)cc1NC(=O)c1ccc2c(c1)OCO2	-7.3	.	.	.	.	.	-2.6	-0.2	-2.6	10.9
Cc1c(C(=O)OCCOC(C)C)[nH]c2c1C(=O)CC(C)(C)C2	-6.6	1.2	-1.6	-2.2	0.3	i	0.2	-1.8	-11.1	2.8
CC(=O)Oc1ccccc1N(C(C)=O)S(=O)(=O)c1cccc([N+](=O)[O-])c1	3.3	11.7	12.3	0.9	0.3	i	-5.8	3.5	-6.6	12.1
Cc1ccc(CN2CC(C(=O)N3CC=C(c4ccccc4)CC3)CC2=O)cc1 (centres undefined)	12.5	-51.5	-75.6	-20.7	-7.6	i	6.8	0.5	-0.6	-0.4
COC(=O)c1cc(C(=O)N2CCN(c3cccc(C)c3C)CC2)cc([N+](=O)[O-])c1	15.8	-8.1	-6.1	-2.8	17.3	i	-28.3	-0.1	-5.7	2.1
N/C(=N\OC(=O)Cc1ccccc1[N+](=O)[O-])c1ccc(Br)cc1	0.8	7.2	10.6	0.6	1.4	i	-8.0	0.3	.	3.4
N#CCCCCn1ccc(NC(=O)c2ccc(Cl)cc2O)n1	43.7	-30.4*	-15.0*	-0.8*	.	i	-8.9	1.0	-0.8	.
COc1ccc(NC(=O)N2CCc3cc(OC)c(OC)cc3C2)cc1	-7.7	-7.3	-8.0	0.5	-2.6	i	-6.9	-3.7	-0.2	0.5
C=CCN(C(=O)c1csnn1)C(C(=O)NC1CCCC1)c1ccc(Cl)cc1 (centres undefined)	-15.3	0.6	4.0	2.3	1.4	i	-4.4	-1.4	-1.6	3.4
O=C(Nc1cccc(-n2cccn2)c1)C1CCCN(Cc2ccccc2F)C1 (centres undefined)	6.4	0.8	-0.5	-2.3	-2.2	i	10.8	1.7	-8.0	-1.4
CCC(Cc1ccccc1)NS(=O)(=O)c1ccc2c(c1)NC(=O)CS2 (centres undefined)	10.7	0.7	-7.4	3.0	1.8	i	0.1	3.0	-9.5	-4.6
Brc1ccccc1Cn1c(-c2cncs2)nc2ccccc21	12.4	-9.4*	-11.5*	2.5*	5.8	i	-3.2	4.8	.	-7.6
O=C(OCC(=O)N1CCc2ccccc2C1)c1ccc(N2CCOCC2)c([N+](=O)[O-])c1	7.8	.	.	.	.	.	5.2	-0.2	0.3	-0.1
Cc1onc(-c2c(Cl)cccc2Cl)c1C(=O)N=C(N)N1CCCC1	6.3	5.0	3.5	0.3	-5.2	i	-5.0	0.3	.	-1.6
CCOC(=O)C(NC(=O)c1ccccc1Cl)(Nc1sc2c(c1C(N)=O)CCC2)C(F)(F)F (centres undefined)	-25.2	10.4	5.4	13.2	-4.3	i	20.8	0.1	.	.
COc1ccc(NC(=O)Nc2ccccc2SC)cc1	-11.0	4.5	-5.2	-2.5	-1.8	i	4.1	3.9	29.8	11.8
CC1CCC(NC(=O)CSc2nnc(-c3cccnc3)o2)CC1 (centres undefined)	.	0.6	7.1	-1.5	-2.9	i	.	.	-0.6	-3.8
CCC(C)[C@H](NC(=O)[C@@H]1Cc2ccccc2CN1C(=O)OC(C)(C)C)C(=O)NCC1CCC(C(=O)O)CC1 (some centres undefined)	8.3	7.6	-2.9	-1.6	1.8	i	-8.8	2.4	.	3.6
CC(=O)Nc1ccc(N2C(=O)CSC2c2ccc([N+](=O)[O-])cc2)cc1 (centres undefined)	-2.7	9.5	2.5	1.9	2.1	i	-5.1	-2.8	?	-7.8
Cc1cc(C(=O)Nc2ccc3c(c2)OCCO3)c(C)o1	-13.0	.	.	.	.	.	-7.5	4.1	14.1	8.5
O=C(O)c1ccccc1OCCOc1ccccc1	-1.8	.	.	.	-7.4	.	-8.0	2.7	-3.1	-5.6
COC(=O)c1cn(Cc2cc(OC)ccc2OC)cc(F)c1=O	-9.8	.	.	.	.	.	-7.5	1.0	-3.1	-1.1
COc1ccc(/C=C(\NC(=O)c2ccco2)C(=O)NCCc2nc3ccccc3[nH]2)cc1	-1.7	-5.8	0.0	1.5	0.6	i	-0.8	4.9	-11.3	5.6
CCC1(CC)Cc2ccccc2C2=C(C(=O)N3CCCCC3)C(=O)C(=O)N21	-23.9	.	.	.	-2.1	i	8.1	5.5	-15.9	-2.0
COC(=O)c1ccc(-c2ccc([C@H]3[C@H]4C=CC[C@@H](C)[C@@H]4C(=O)N3Cc3ccccc3)c(F)c2)cc1	4.0	17.4	13.3	-3.5	-1.7	i	-10.4	3.0	0.3	3.0
COc1cc(/C=C2/C(=O)NN(c3ccc(F)cc3)C2=O)cc([N+](=O)[O-])c1O	20.7	-3.2	5.3	11.8	-3.0	.	-5.8	7.2	?	-4.7
Nc1ccc(N2CCCCC2)cc1N1CCCCC1	-0.2	.	.	.	.	.	62.3*	0.8	.	113.2*
O=c1cc(NCc2ccccc2)nc2ccccn12	-3.6	-4.5	-0.9	-2.1	0.5	i	5.1	3.3	-0.2	-5.4
Cc1nn(C)cc1CNC(=O)Nc1ccc(Cl)c(Cl)c1	8.2	.	.	.	.	.	-9.6	-2.7	-4.0	4.8
C=CC[C@@H](CC(=O)N[C@@H](CO)Cc1ccccc1)C(=O)NC[C@@H](OC(=O)[C@@H](CC=C)CC(=O)OC(C)(C)C)c1ccccc1	.	7.1	11.7	3.9	-34.4	i	.	.	-1.3	3.2
Cc1c(Br)c(-c2n[nH]c(=S)n2Cc2ccco2)nn1C	-12.8	.	.	.	.	.	-2.9	-1.8	-6.3	.
Cc1ccccc1NC(=O)CCSc1nnnn1-c1ccccc1	-23.5	.	.	.	.	.	-17.6	5.8	-8.0	-2.5
O=C(NCCCO)c1ccc(CSc2nc3ccccc3c(=O)[nH]2)cc1	3.3	-1.4	-1.7	9.2	-1.3	i	1.7	1.1	99.7*	2.4
COc1ccc(CN2CCN(Cc3ccc(OC)c(OC)c3OC)CC2)cc1	-8.9	13.2	19.1	-0.2	0.5	i	31.1	4.2	0.7	-3.2
CCOC(=O)C(C)/C(C)=N/NC(=O)c1cc2ccccc2cc1O (centres undefined)	0.0	21.1	-6.9	-4.3	-0.8	i	-3.3	-7.8	.	?
CC(C)CC(=O)C(=O)O	.	.	.	.	-4.2&-3.8	i	.	.	-17.0&3.6	-8.3&-2.1
O=C(CC(NS(=O)(=O)c1ccc(Cl)cc1)c1ccco1)N1CCc2ccccc21 (centres undefined)	53.2	-11.4	-11.5	6.8	4.4	i	23.0	-0.9	-7.9	-3.8
CCOc1ccccc1C(=O)NC(CO)C(=O)O (centres undefined)	-7.3	.	.	.	.	.	-10.5	-0.2	-9.5	3.6
O=C(NC1CCS(=O)(=O)C1)c1ccc(S(=O)(=O)NCC2CCCO2)cc1 (centres undefined)	-5.7	.	.	.	.	.	-12.9	2.8	-2.7	-9.8
CCCC(=O)NC(c1cccs1)c1cc(Cl)c2cccnc2c1O (centres undefined)	86.1*	17.0	15.7	-3.2	0.0	i	77.7*	.	-2.3	93.2*

The closing two compounds of the section before are carried over, then new ones follow.
SMILES	Calb FLC	rRNA inh HTS	rRNA inh HTS OD600	rRNA inh HTS RFP	AF4-AF9 inh	FGF22 binding	T cruzi repl	RanGTP-Imp inh	ALR inh	Beta apoptosis
O=C(NC1CCS(=O)(=O)C1)c1ccc(S(=O)(=O)NCC2CCCO2)cc1 (centres undefined)	-5.7	.	.	.	.	.	-12.9	2.8	-2.7	-9.8
CCCC(=O)NC(c1cccs1)c1cc(Cl)c2cccnc2c1O (centres undefined)	86.1*	17.0	15.7	-3.2	0.0	i	77.7*	.	-2.3	93.2*
CC(=O)Nc1ccc(NC(=O)C(C)OC(=O)/C=C/c2cn(-c3ccccc3)nc2-c2cccnc2)cc1 (centres undefined)	-1.7	.	.	.	.	.	7.3	4.6	-4.5	16.4
CS(=O)(=O)Nc1cccc(C2=NN(C(=O)c3ccccc3Cl)C(c3ccccc3O)C2)c1 (centres undefined)	11.8	.	.	.	.	.	13.5	-0.7	.	-2.6
Cc1ccc2c(CN3CCN(S(=O)(=O)/C=C/c4ccccc4)CC3)cc(=O)oc2c1	1.2	.	.	.	.	.	45.2	-1.5	-17.6	.
CC1CC1C(=O)Nc1nc(-c2cccs2)c(-c2cccs2)s1 (centres undefined)	11.7	.	.	.	.	.	3.7	4.8	-36.3	-9.7
COc1ccc(CNC(=S)Nc2ccc(F)c(Cl)c2)cc1OC	-44.6	-27.2*	-21.9*	-7.6*	1.8	i	-9.0	-0.9	-1.9	-5.2
